# High-throughput results from PubChem.
# Ecoli growth – blocks Escherichia coli growth; OD600, 23 h; active compounds read low; OD600 absorbance (no concentration beside the values); 0.21% of 330,000 active; AID 1053175;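 active = OD600 absorbance below the run mean of sample wells minus 3.6 SD, in any replicate, cut at about 0.56 in these data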;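 also: stock transfer was 300 nL into about 60 µL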
# AF4-AF9 inh – MLL-AF4/AF9 protein interaction inhibition. AlphaScreen, biotin-AF4 peptide binding to FLAG-AF9. 0.47% of 350,000 active. AID 651704. inhibition, % at 10 µM;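 active = every replicate reaching a set inhibition limit, whatever the replicate mean, cut at about 25% in these data; inconclusive = mean inhibition reaches that limit but some replicates miss it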;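 also: 0% = plate neutral control median and 100% = total signal loss; the record names both 10 and 1 µM as test concentration; the first replicate is given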
# ALR inh – blocks human ALR sulfhydryl oxidase activity; purified ALR, DTT oxidation, H2O2 HRP-luminol luminescence; inhibition, % (test concentration not listed); AID 485317; P55789; 3.8% of 290,000 active;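 active = mean and each replicate at 75% or more; inconclusive = only one of the two met; inactive = neither met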;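 also: stock transfer was 7.5 nL into about 7.5 µL; 0% = neutral wells and 100% = wells with inactivated enzyme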
# Target sequence (P55789 whole entry, looked up): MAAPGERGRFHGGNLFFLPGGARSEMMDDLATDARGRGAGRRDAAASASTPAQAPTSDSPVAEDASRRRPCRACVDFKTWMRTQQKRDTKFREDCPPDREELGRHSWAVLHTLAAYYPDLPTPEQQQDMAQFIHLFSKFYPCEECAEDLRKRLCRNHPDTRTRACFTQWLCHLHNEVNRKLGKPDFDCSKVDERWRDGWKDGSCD
# Vif A3G – inhibitors of Vif binding to APOBEC3G peptide, primary screen, biochemical, TR-FRET, GST-Vif 1-94, biotin-A3G peptide, dose response retest (AID 1117319); TR-FRET GST-Vif / biotin-A3G peptide binding; higher % means a stronger effect; test concentration not given here; strong numbers were not always called active; inhibition, %; hits with a dose series show IC50 in µM; 0.57% of 260,000 active;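 active = above the screen mean plus three standard deviations and confirmed in dose response; inconclusive = results disagree or hit not tested in dose response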;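 also: Vif residues 1-94 fused to GST binding biotinylated APOBEC3G peptide 110-148; 0% = full assay without inhibitor and 100% = GST in place of GST-Vif; retest series ran down from 100 µM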
# FGF22 binding – shifts melting point of recombinant human FGF22; recombinant FGF22 thermal shift, SYPRO orange fluorescence; percent of sucrose octasulfate shift, DMSO zero; calls only at 9.99 µM; 1.5% of 340,000 active; AID 651658;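 active = melting point raised past a set limit in the mean and every replicate; inconclusive = no clear call; three in four hits are not shown here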
# Target sequence (Q9HCT0 whole entry, looked up): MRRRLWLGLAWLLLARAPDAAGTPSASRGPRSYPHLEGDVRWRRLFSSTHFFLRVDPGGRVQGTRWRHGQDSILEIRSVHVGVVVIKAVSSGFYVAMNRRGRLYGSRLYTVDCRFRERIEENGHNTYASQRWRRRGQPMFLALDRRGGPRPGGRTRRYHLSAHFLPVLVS
# rRNA inh HTS – selective bacterial rRNA inhibition in E. coli | E. coli WT GFP vs humanized-ribosome RFP mutants, fluorescence, 24 h; active compounds read low; DMSO median 0, no signal -100 | GFP signal change (wild-type ribosome), % (test concentration not listed) | 1.6% of 350,000 active | AID 720706;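 active = significant combined selectivity score with lowered wild-type GFP, culture density cut under 30%, mutant RFP and density less affected; inactive = any of these conditions unmet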; also: one replicate is shown; some compounds called inactive have numbers as strong as hits
# HNF4A DNA FP – change in binding of human HNF4 alpha to DNA; P41235; HNF4a-FITC DNA binding, fluorescence polarization, 1 h; activity change, % at 10 µM; 0.3% of 360,000 active; AID 1224865; in the data active = activity change above about 30%, passing the limit was not always enough;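 also: controls were the assay level and a saturating level of protein; the project sought stronger binding though the title names inhibitors; some compounds called inactive have numbers as strong as hits; positive values seem to mean higher polarization but the record does not say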
# Target sequence (P41235 whole entry, looked up): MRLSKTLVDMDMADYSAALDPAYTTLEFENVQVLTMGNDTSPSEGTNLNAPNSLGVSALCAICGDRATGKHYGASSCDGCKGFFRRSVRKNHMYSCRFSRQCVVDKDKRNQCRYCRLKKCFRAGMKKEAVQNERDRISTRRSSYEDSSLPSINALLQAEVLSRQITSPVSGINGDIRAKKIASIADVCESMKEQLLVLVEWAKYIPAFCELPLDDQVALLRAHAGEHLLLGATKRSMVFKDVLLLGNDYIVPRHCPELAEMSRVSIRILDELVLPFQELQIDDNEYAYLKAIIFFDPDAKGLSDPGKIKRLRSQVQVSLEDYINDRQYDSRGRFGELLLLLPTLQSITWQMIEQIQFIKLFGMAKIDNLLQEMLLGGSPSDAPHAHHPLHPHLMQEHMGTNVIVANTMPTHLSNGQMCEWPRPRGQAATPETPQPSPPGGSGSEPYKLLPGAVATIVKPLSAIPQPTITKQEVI
# rRNA inh HTS OD600 – recorded beside rRNA inh HTS, whose call it bears; OD600 change, %; measured here: OD600 growth;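 optical density of the mix in the first replicate; 0 = DMSO median and -100 = no signal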
# rRNA inh HTS RFP – second read-out of rRNA inh HTS, no call of its own (marks repeat the call); RFP signal change, %; measured here: RFP humanized mutant strains;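 first replicate; 0 = DMSO median and -100 = no signal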
# * marks the source's active call; other numbers are inactive results; i = inactive; ? = inconclusive; . = not tested or not shown; & = joins results of further samples.
SMILES,Ecoli growth,AF4-AF9 inh,ALR inh,Vif A3G,FGF22 binding,rRNA inh HTS,rRNA inh HTS OD600,rRNA inh HTS RFP,HNF4A DNA FP
Cc1cccc(NNC(=O)c2c(F)cccc2Cl)c1,0.68,-1.7,18,11%,i,-4,6,0.3,-2.6
C[C@H](CO)N1C[C@H](C)[C@@H](CN(C)Cc2ccc(Cl)c(Cl)c2)Oc2ccc(NC(=O)Cc3cn(C)c4ccccc34)cc2CC1=O,.,4.2,.,.,i,1,8,3.1,.
O=C1C2C3C=CC(C3)C2C(=O)N1/N=C/c1cn(Cc2ccccc2)c2ccccc12 (centres undefined),.,.,-16,-15%,.,.,.,.,4.3
CC(=O)N1CCN=C1SCc1ccccc1,0.73,-2.7,3,16%,i,2,1,0.6,1.9
COc1ccccc1C(=O)NC(=O)COC(=O)c1ccco1,0.67,-14,0,3%,i,9,9,-0.3,5.4
O=C(Nc1ccc(Nc2ccccc2)cc1)c1ccco1,0.59,.,92*,?,.,.,.,.,1.6
CCOC(=O)CNC(=O)Cn1cnc2c(nnn2-c2ccccc2)c1=O,0.64,.,5,.,.,.,.,.,-1.0
CCC(=O)Nc1ccc2c(c1)C(=O)N(C)C[C@H](OC)[C@H](C)CN(Cc1ccccn1)[C@H](C)CO2,.,-0.4,.,.,i,0,-2,1.9,.
CCCCN(C(=O)c1ccc(OC(F)(F)F)cc1)c1c(N)n(CCC)c(=O)[nH]c1=O,0.66,-0.5,-6,1%,.,.,.,.,-0.4
CCOc1ncccc1C(=O)Nc1ccccc1C(=O)NCc1ccc2c(c1)OCO2,0.67,.,-10,-18%&-17%,.,.,.,.,1.3
Cn1c(=O)n(C)c2cc([N+](=O)[O-])c(N3CCN(CCO)CC3)cc21,0.71,-1.2,-5,0%,i,8,8,0.9,0.7
Cc1c(Br)c([N+](=O)[O-])nn1CC(=O)N(C)Cc1ccccc1,0.62,0.2,0,.,i,11,14,-0.1,-1.7

# By substructure, those above containing a nitro group on carbon.
SMILES,Ecoli growth,AF4-AF9 inh,ALR inh,Vif A3G,FGF22 binding,rRNA inh HTS,rRNA inh HTS OD600,rRNA inh HTS RFP,HNF4A DNA FP
Cn1c(=O)n(C)c2cc([N+](=O)[O-])c(N3CCN(CCO)CC3)cc21,0.71,-1.2,-5,0%,i,8,8,0.9,0.7
Cc1c(Br)c([N+](=O)[O-])nn1CC(=O)N(C)Cc1ccccc1,0.62,0.2,0,.,i,11,14,-0.1,-1.7

# More records.
SMILES,Ecoli growth,AF4-AF9 inh,ALR inh,Vif A3G,FGF22 binding,rRNA inh HTS,rRNA inh HTS OD600,rRNA inh HTS RFP,HNF4A DNA FP
COc1cccc(CNC(=O)c2cc3c(cc2Cl)N2CCCCCC2=NS3(=O)=O)c1,0.68,-5.4,-2,3%,i,-8,-5,-1.9,2.4
C[C@@H]1CN([C@@H](C)CO)C(=O)c2cccc(NC(=O)C3CCCCC3)c2O[C@@H]1CN(C)S(C)(=O)=O,.,-2.0,.,.,i,2,7,-0.1,.
Cc1cccc(CSc2[nH]c(=O)ncc2C)c1,0.67,12,-1,.,i,-9,2,8.2,1.5
CCn1c(=O)c(C(=O)NCc2ccccc2)c(O)c2ccccc21,0.71,-2.0,11,.,i,-1,5,4.4,-2.2
CC(C)NC(=O)N(C)C[C@@H]1OCCCC[C@H](C)Oc2ccc(NS(=O)(=O)c3cccs3)cc2C(=O)N([C@H](C)CO)C[C@@H]1C,.,-1.9,.,.,i,0,-1,-3.5,.
Cc1ccc(C2(C)NC(=O)N(CC(=O)Nc3cccnc3Cl)C2=O)cc1 (centres undefined),0.63,-1.6,0,.,i,17,10,-0.9,2.6
Cc1c(Cl)cccc1NC(=O)COC(=O)Cn1cnc2c1c(=O)n(C)c(=O)n2C,0.66,-0.6,-3,-2%,i,20,6,-0.3,0.1
Cc1c(Cl)cccc1NC(=O)CN1CCN(CCO)CC1,0.68,.,-1,11%,.,.,.,.,-0.4
COc1ccc(-n2c(C)cc(C(=O)CN3CCCCC3)c2C)cc1,0.65,4.5,.,3%,i,-2,-7,-1.3,0.0
CCc1cc(=O)oc2cc(C)cc(OC(C)C(=O)NCC(O)c3ccccc3)c12 (centres undefined),0.69,0.9,-2,-5%,i,-4,-1,-2.8,3.6
O=C(Nc1cccc(Cl)c1)C1=Cc2cc(Cl)ccc2OC1,0.74,.,-3,78%,.,.,.,.,-1.1
NS(=O)(=O)OCCCc1ccccc1,0.69,-0.1,-3,.,i,5,9,2.9,8.5
COc1ncccc1-c1nnn(-c2ccccc2)n1,0.67,4.1,0,0%,i,2,11,-3.2,-3.1
CCN(C(=O)COC(=O)CCS(=O)(=O)c1ccc(C)cc1)C1CCS(=O)(=O)C1 (centres undefined),0.73,-1.1,0,0%,i,6,11,-0.8,3.7
CN(C(=O)c1ccncc1)C1CCS(=O)(=O)C1 (centres undefined),0.67,-23,-2,12%,i,6,0,-1.4,-0.5
Cc1cc(Br)c2c(c1)C(O)(N1CCCCC1C)C(=O)N2 (centres undefined),0.69,3.2,-1,-4%,i,-14,-8,-5.4,0.7
COc1ccc(CCNS(=O)(=O)c2cccc([N+](=O)[O-])c2)cc1,0.65,4.3,-16,.,i,2,-12,-3.1,-3.7
Cc1ccccc1/C=C/C(=O)c1ccc([N+](=O)[O-])o1,.,3.5,-6,.,i,-55,-78,-27,.
COCc1cn(CC[C@H]2CC[C@@H](NC(=O)Nc3c(C)noc3C)[C@H](CO)O2)nn1,.,-0.5,.,.,i,3,4,-0.9,.
CCC(O)CNC(=O)CCc1nnc(C2(c3ccc(Cl)cc3)CCC2)o1 (centres undefined),0.68,-2.3,-12,.,i,5,6,-5.1,-0.6
Cc1cccc(CN2C(=O)[C@@H]3Cc4c([nH]c5ccccc45)C(C)(C)N3C2=O)c1,.,5.1,0,.,i,-23,-32,0.5,-1.6
COc1ccc(/C=C/C(=O)NCCCc2ccccc2)cc1,.,.,-6,-3%,.,.,.,.,-1.1
O=C(CN1CCOCC1)N1CCCCN2[C@H](CO)[C@@H](c3ccc(C#Cc4ccccc4F)cc3)[C@@H]2C1,.,-2.2,.,.,i,-29,-57,3.5,.
COc1c(C)cccc1C(=O)NC(=S)Nc1ccccc1N1CCCC1,0.7,5.8,29,.,i,1,3,8.1,-0.8
CCCCn1c(N)c(N(CC(C)C)C(=O)C2CCCO2)c(=O)[nH]c1=O (centres undefined),0.68,0.5,-1,3%,i,2,4,-0.4,0.0
O=S(=O)(c1ccc(SCc2cccc(Cl)c2)nc1)N1CCCC1,0.71,-0.1,-1,0%,i,-4,-33,-3.5,-2.1
CC1(C)CC(N(Cc2ccc(F)cc2)C(=O)c2ccc(F)cc2)CCO1 (centres undefined),0.66,-1.4,-2,14%,i,1,2,1.3,-0.5
CC(=O)c1cccc(NC(=O)C(C)OC(=O)CNC(=O)c2ccc(C)s2)c1 (centres undefined),0.66,-2.3,-13,6%,.,-10,-9,-1.8,-0.4
CCOc1cc(C2C(C(=O)OC(C)C)=C(C)N=C3SCCC(=O)N32)ccc1OC(C)=O (centres undefined),0.72,.,0,13%,.,.,.,.,-3.5
C[C@H](NC(=O)[C@@H]1[C@@H](CO)[C@@H]2Cn3c(ccc(-c4cccnc4)c3=O)[C@H]1N2C)c1ccccc1,.,0.4,.,.,i,-1,3,-4.2,.
COc1ccccc1N(CC(=O)NC1CCCC1)C(=O)CNC(=O)c1cccs1,0.69,-1.5,8,.,i,-3,-3,0.5,-2.0
O=C(Nc1ccc(Br)cc1F)c1nc[nH]c1C(=O)N1CCc2ccccc2C1,.,-2.3,.,3%,i,20,12,3.9,-0.8
CCc1nnc(NC(=O)C2CSC3(C)CCC(=O)N23)s1 (centres undefined),0.66,-0.9,-4,-8%,i,21,15,-0.2,5.1
CC(=O)c1c(C)[nH]c2ccccc2c1=O,0.71,.,-9,-5%,.,5,7,-2.1,11
Cc1ccsc1/C=C1\SC(=S)N(CC2CCCO2)C1=O (centres undefined),0.73,8.3,13,0%,i,-9,4,14,1.2
CCOC(=O)c1cc(OC(=O)c2ccccc2)n(-c2ccccc2)n1,0.69,.,32,10%,.,.,.,.,-0.1
CCCC12CN3CC(C)(CN(C1)C3c1ccc(OC(C)C)cc1)C2=O (centres undefined),0.66,.,-3,0%,.,.,.,.,-0.8
COc1ccc(Br)cc1C(=O)Nc1ccc(NC(=O)c2ccco2)cc1,.,.,3,1%,.,.,.,.,-2.1
COc1ccccc1NC(=S)N(Cc1ccco1)Cc1cc2cc(C)ccc2[nH]c1=O,0.65,.,-4,.,.,.,.,.,0.0
C/C(=N\NC(=O)c1nnn(-c2nonc2N)c1-c1ccc2c(c1)OCO2)c1cccs1,.,1.1,0,.,i,-4,5,-0.8,-2.6
COc1ccc(-c2[nH]ncc2CN2CCCOc3c(cccc3OC)C2)c(OC)c1,0.65,4.7,4,.,i,14,9,1.6,4.9
COc1ccccc1Cc1c(-c2cccc(Cl)c2)nc2c(C)cc(Br)cn12,.,-4.3,.,.,i,-7,-1,-0.1,3.5
O=C(N/N=C/c1ccncc1)c1ccc(COc2cccc3cccnc23)cc1,.,0.3,-20,.,i,-28*,-7.1*,-0.5*,1.3
Cn1ncc2c(N3CCC(Cc4ccccc4)CC3)ncnc21,0.67,-0.7,-6,-8%,i,-34,-32,-4.7,2.1
CO[C@H]1CN(C)C(=O)c2ccc(NC(=O)Nc3ccc(Cl)c(Cl)c3)cc2OC[C@H](C)NC[C@H]1C,.,14,.,.,i,-10&-61,-5&-81,-3.1&-14,.
COc1ccc2nc3c(nc2c1)CCCC3,0.69,-6.1,-8,-1%,i,9,-1,-0.1,2.3
N=c1sccn1CC(=O)NC(c1ccccc1)c1ccccc1,0.66,2.9,-6,19%,i,6,-4,1.0,-1.1
Cc1ccc(S(=O)(=O)N2C[C@@H](O)COC[C@H]3O[C@H](CC(=O)NCCN4CCCCC4)CC[C@@H]32)cc1,.,-3.2,.,.,i,0,7,-0.7,.
COc1ccc(C(=O)NNC(=O)C(=O)/C=C(\O)c2ccc(C)cc2)cc1,0.69,3.7,.,.,i,7,8,4.2,4.7
Cc1ccnc(NS(=O)(=O)c2ccc(NS(=O)(=O)c3cccs3)cc2)n1,0.68,.,-5,31%,.,.,.,.,5.1

# By substructure: the compounds so far with an NH in an aromatic ring (eight)
SMILES,Ecoli growth,AF4-AF9 inh,ALR inh,Vif A3G,FGF22 binding,rRNA inh HTS,rRNA inh HTS OD600,rRNA inh HTS RFP,HNF4A DNA FP
CCCCN(C(=O)c1ccc(OC(F)(F)F)cc1)c1c(N)n(CCC)c(=O)[nH]c1=O,0.66,-0.5,-6,1%,.,.,.,.,-0.4
Cc1cccc(CSc2[nH]c(=O)ncc2C)c1,0.67,12,-1,.,i,-9,2,8.2,1.5
Cc1cccc(CN2C(=O)[C@@H]3Cc4c([nH]c5ccccc45)C(C)(C)N3C2=O)c1,.,5.1,0,.,i,-23,-32,0.5,-1.6
CCCCn1c(N)c(N(CC(C)C)C(=O)C2CCCO2)c(=O)[nH]c1=O (centres undefined),0.68,0.5,-1,3%,i,2,4,-0.4,0.0
O=C(Nc1ccc(Br)cc1F)c1nc[nH]c1C(=O)N1CCc2ccccc2C1,.,-2.3,.,3%,i,20,12,3.9,-0.8
CC(=O)c1c(C)[nH]c2ccccc2c1=O,0.71,.,-9,-5%,.,5,7,-2.1,11
COc1ccccc1NC(=S)N(Cc1ccco1)Cc1cc2cc(C)ccc2[nH]c1=O,0.65,.,-4,.,.,.,.,.,0.0
COc1ccc(-c2[nH]ncc2CN2CCCOc3c(cccc3OC)C2)c(OC)c1,0.65,4.7,4,.,i,14,9,1.6,4.9

# A portion of the library; rates above refer to the full screens.
